Bioassay records: PubChem, National Center for Advancing Translational Sciences (NCATS)
VDR inhibitor = vitamin D3 receptor (human) inhibition | VDR-SRC2-3 peptide fluorescence polarization, 2 h | AID 504847 | 400,000 compounds, 0.93% hits | Potency, µM, for inactives: max response, negative = inhibition, hits mostly inhibitors | P11473; active = well fitted inhibition curve with a large enough effect; inconclusive = small, poorly fitted or top-dose-only effect, or another doubt; inactive = no such curve, though single readings can be large or run the other way; note: series mostly up to about 120 µM
Target sequence (P11473 whole entry, looked up): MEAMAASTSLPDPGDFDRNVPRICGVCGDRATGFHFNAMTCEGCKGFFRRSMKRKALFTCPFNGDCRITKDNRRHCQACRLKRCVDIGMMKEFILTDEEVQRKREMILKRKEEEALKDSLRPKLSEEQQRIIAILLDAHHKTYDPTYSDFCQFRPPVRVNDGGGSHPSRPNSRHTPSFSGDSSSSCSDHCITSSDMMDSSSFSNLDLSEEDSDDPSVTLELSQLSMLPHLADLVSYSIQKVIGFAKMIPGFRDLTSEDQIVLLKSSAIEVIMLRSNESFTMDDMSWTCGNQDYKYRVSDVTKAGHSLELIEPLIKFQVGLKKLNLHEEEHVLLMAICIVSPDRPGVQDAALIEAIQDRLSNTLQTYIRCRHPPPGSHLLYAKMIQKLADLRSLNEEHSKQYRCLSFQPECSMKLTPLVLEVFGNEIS
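Fluorescence polarization assay measuring small-molecule disruption of VDR binding to the coregulator peptide SRC2-3. Compounds were pin-transferred (23 nl) into the reagent mix and incubated 2 h at room temperature before reading.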
Numbers without * were called inactive; ? = inconclusive; & = joins results of further samples. % is set by controls: 0 for no effect and ±100 for the full control effect; potency is the fitted concentration of half-maximal effect.

The opening 4 entries as a preview:
VDR inhibitor | SMILES
5.1% | COc1cc(/C=C2\SC(N)=NC2=O)ccc1O
-0.6% | Cc1cccn2c(=O)c3cc(C#N)c(=NC(=O)c4ccncc4)n(CCCOC(C)C)c3nc12
0.5% | N#C/C(=C\c1ccc(N2CCOCC2)c([N+](=O)[O-])c1)c1nc2ccccc2[nH]1
4.5% | O=C(Nc1ccc(Cl)c(Cl)c1)OCCNC(=O)c1ccncc1

Results, previewed entries included:
VDR inhibitor | SMILES
5.1% | COc1cc(/C=C2\SC(N)=NC2=O)ccc1O
-0.6% | Cc1cccn2c(=O)c3cc(C#N)c(=NC(=O)c4ccncc4)n(CCCOC(C)C)c3nc12
0.5% | N#C/C(=C\c1ccc(N2CCOCC2)c([N+](=O)[O-])c1)c1nc2ccccc2[nH]1
4.5% | O=C(Nc1ccc(Cl)c(Cl)c1)OCCNC(=O)c1ccncc1
-13.1% | COC(=O)c1ccccc1NC(=O)c1cccc(COc2ccccc2Cl)c1
-10.3% | Cc1sc2nc(CSC(C)C(=O)N3CCOCC3)[nH]c(=O)c2c1C (stereo unspecified)
11.7% | O=C(Nc1ccc([N+](=O)[O-])cc1)Nc1cnccn1
10.2% | COc1ccc(CCC(=O)c2ccc(OC)cc2)cc1
-2.8% | COCCn1c(=O)c(-c2cc(F)cc(F)c2)nc2cncnc21
-15.7% | CC(C)(C)[C@H]1CCC(=O)N([C@H](CC#N)Cc2ccccc2)CC1
-3.4% | CC(=O)c1c(C)[nH]c(C(=O)CSc2nnc(C3CCCCC3)n2N)c1C
-5.5% | O=[N+]([O-])c1cc(C(F)(F)F)cc([N+](=O)[O-])c1N1CCN(S(=O)(=O)c2ccccc2)CC1
? | C[C@H](Cc1nc2c(cnn2-c2ccccc2Cl)c(=O)[nH]1)C(F)(F)F
-7.8% | O=C1/C(=C\c2ccc([N+](=O)[O-])cc2)CCc2ccccc21
-22.0% | CC(C)C(=O)NCCc1c[nH]c2ccccc12
21.6% | Cc1occc1C(=O)N/N=C/c1c(O)ccc2ccccc12
1.0% | O=C(NS(=O)(=O)c1ccc(NC(=O)C2CCCO2)cc1)c1ccccc1 (stereo unspecified)
22.4µM* | CCOc1ccc(C(C)=O)cc1N1C(=O)C2C3C=CC(O3)C2C1=O (stereo unspecified)
-12.0% | O=C(NCc1ccccn1)C1CC(c2ccc(Cl)c(Cl)c2)=NO1 (stereo unspecified)
-0.2% | Cc1ccc(CNC(=O)CN2C(=O)CSc3c2c(C)nn3-c2ccccc2)cc1

VDR inhibitor | SMILES
3.1% | Cn1c(N)c(C(=O)COC(=O)/C=C/c2ccc(OC(F)F)cc2)c(=O)n(C)c1=O
0.8% | O=C1NC(=Nc2ccc3ccccc3c2)S/C1=C/c1ccco1
-4.4% | COc1ccc2c(c1)CCc1sc(NC(=O)c3ccc(C)cc3)nc1-2
-5.8% | CCCC(=O)N1CCN(c2nc3ccc(CC)cc3s2)CC1
5.7% | CCN1C(=NCc2ccccc2)N[C@@H](c2ccccc2)[C@H](C(=O)OC)[C@H]1C
7.4% | COC1=C(OC)c2ccccc2C(C(=O)O)N/C1=C(/C)Nc1ccncc1 (stereo unspecified)
4.3% | COC(=O)c1ccccc1N(C)S(=O)(=O)c1cc2c3c(c1)CC(=O)N3CCC2
10.3% | COCCNC(=O)C(c1ccc(F)cc1)N(Cc1cccs1)C(=O)CCC(=O)Nc1ccccn1 (stereo unspecified)
-2.5% | Cc1csc(=O)n1CC(=O)Nc1nc2ccccc2s1
2.1% | COc1ccccc1NC(=O)NCCN1CCCCC1
-3.9% | Cc1ccc(NC(=O)CSc2n[nH]c(-c3cccnc3)n2)c(Br)c1
12.9% | O=C(O)c1cc(NS(=O)(=O)c2cccc3ccccc23)ccc1O
3.5% | CSc1nc(C)c(CCOCc2ccc(F)cc2)c(=O)[nH]1
-9.8% | CCc1nnc(NC(=O)CCS(=O)(=O)c2ccccc2)s1
-21.7% | NS(=O)(=O)c1ccc(N2C(=O)C(=O)/C(=C(/O)c3ccccc3)C2c2ccc(Cl)cc2)cc1 (stereo unspecified)
19.1% | COC(=O)Nc1ncc(CN2C(=O)c3ccccc3C2=O)s1
7.1% | COc1ccc(N(C(=O)c2ccc(Cl)cc2)C2=CC3CCC(C2)N3C)cc1 (stereo unspecified)
1.8% | CCn1cc(CNC(=O)c2cccc([N+](=O)[O-])c2)c(C)n1
-5.0% | COCCCN1C(=O)C(O)=C(C(=O)c2ccco2)C1c1cccc(Br)c1 (stereo unspecified)
-22.9% | COc1ccc(NC(=O)c2cc(C)nc3ccccc23)cc1S(=O)(=O)Nc1ccccc1Cl

As a short view, 6 of the compounds above.
VDR inhibitor | SMILES
5.1% | COc1cc(/C=C2\SC(N)=NC2=O)ccc1O
-0.6% | Cc1cccn2c(=O)c3cc(C#N)c(=NC(=O)c4ccncc4)n(CCCOC(C)C)c3nc12
0.5% | N#C/C(=C\c1ccc(N2CCOCC2)c([N+](=O)[O-])c1)c1nc2ccccc2[nH]1
4.5% | O=C(Nc1ccc(Cl)c(Cl)c1)OCCNC(=O)c1ccncc1
-13.1% | COC(=O)c1ccccc1NC(=O)c1cccc(COc2ccccc2Cl)c1
-10.3% | Cc1sc2nc(CSC(C)C(=O)N3CCOCC3)[nH]c(=O)c2c1C (stereo unspecified)

(continued)
VDR inhibitor | SMILES
8.7% | CCCC(=O)Nc1ccc(S(=O)(=O)N2CCOCC2)cc1
-6.3% | Cc1c(/C=N\NC(=O)c2ccc(F)cc2)cnn1C
8.9% | COc1ccc(C/C(N)=N/OC(=O)Cc2ccccc2)cc1
-13.3% | Cc1ccc(N2C(=O)C3N=NN(CC(=O)N4N=C(c5ccccc5)CC4c4ccccc4)C3C2=O)cc1 (stereo unspecified)
-16.2% | CCCCCN(C(=O)CCC(=O)OCC(=O)N(CC)C1CCCCC1)c1c(N)n(CCCC)c(=O)[nH]c1=O
-9.5% | CCn1c(O)c(N=N)c2ccccc21
-21.1% | COC(=O)/C=C1/SC(=NC(=O)c2ccccc2)NC1=O
-2.4% | CCOc1ccc(NC(=O)CC2C(=O)N(c3ccccc3)C(=O)N2CCc2sccc2C)cc1 (stereo unspecified)
5.8% | CC(=O)c1cccc(NC(=O)N2CCCC2C(=O)Nc2cccc(C)c2C)c1 (stereo unspecified)
-9.9% | Cc1ccc(C(=O)CSc2nnc(-c3ccc4[nH]c(C)c(C)c4c3)o2)cc1C
-7.9% | CCOC(=O)Cc1ccc(NC(=O)c2ccc(C(C)(C)C)cc2)cc1
-11.8% | CCc1nn(CC(=O)NCCCN2CCCC2=O)c(=O)c2cc3sccc3n12
16.9% | O=S(Cc1ccc(Br)cc1)Cc1nnc(SCc2ccc(Br)cc2)n1-c1ccccc1 (stereo unspecified)
-28.7% | CC(=O)Nc1ccc(S(=O)(=O)N(C)CC(=O)OCC(=O)c2cc(C)n(-c3ccc4c(c3)OCO4)c2C)cc1
3.5% | O=C(Cc1cccs1)N(Cc1cccs1)C1(C(=O)NC2CCCC2)CCCCC1
-2.8% | CCOc1ccc(C(=O)NCCc2cnc[nH]2)cc1OCC
-12.3% | COc1ccc(C(=O)CSc2nnc(-c3ccoc3C)n2CC2CCCO2)cc1 (stereo unspecified)
0.1% | O=C1NCC(Nc2ccc(Cl)cc2)C(=O)N1 (stereo unspecified)
-29.3% | [N-]=[N+]=NC[C@H](Cc1ccccc1)N1CC[C@@H](O)CCC1=O
-13.1% | Nc1nnnn1CC(=O)OCc1cccc(Br)c1

VDR inhibitor | SMILES
15.7% | COc1cccc(Cc2nc3ccccc3nc2SCC(=O)Nc2cccc(C)c2)c1
-3.2% | CC(C)N=C1SC(CC(=O)Nc2ccccc2)C(=O)N1C(C)C (stereo unspecified)
-3.6% | O=C(CCC1CCCN(C(=O)c2ccc3c(c2)OCO3)C1)NCc1ccc(F)c(F)c1 (stereo unspecified)
7.3% | Cc1cccc(OCC(=O)N(Cc2cccs2)C2CCS(=O)(=O)C2)c1 (stereo unspecified)
-19.9% | Cc1cccc(-c2nc(CS(=O)CC(=O)NCCc3ccccc3)c(C)o2)c1 (stereo unspecified)
8.0% | Cc1c(NC(=O)CCC2CCCCC2)cc(C(=O)N2CCOCC2)cc1[N+](=O)[O-]
4.4% | O=C1C(=O)N(CC2CCCO2)C(c2ccco2)/C1=C(/O)c1ccc(F)cc1 (stereo unspecified)
-8.4% | COC(=O)CCc1c(COC(C)=O)[nH]c(C(=O)OCc2ccccc2)c1C
-29.5% | CC[n+]1c(/C=C/c2ccc(OC(C)=O)c(OC)c2)ccc2ccccc21
6.5% | COc1ccccc1NC(=O)CSc1ccc(-c2ccc(-n3cccn3)cc2)nn1
-7.3% | COC(=O)[C@H](CC(C)C)NC(=O)Cn1cnc2c(NCc3ccccc3)ncnc21
-11.5% | Cc1ccc2nc(NCCO)nc(-c3ccccc3)c2c1
0.1% | O=C(CSc1n[nH]c(-c2cccnc2)n1)Nc1ccccc1[N+](=O)[O-]
-0.5% | CN(CC(=O)Nc1ccc(F)cc1)c1ccc(S(=O)(=O)N2CCCCC2)cc1[N+](=O)[O-]
-4.0% | O=S(=O)(Nc1nc2ccccc2nc1Nc1ccc2c(c1)OCO2)c1ccccc1
1.9% | CCc1ccc(CN(C)Cc2nc(-c3cccc(Cl)c3)no2)nc1
23.7% | CC(NC(=O)Cc1ccc([N+](=O)[O-])cc1)c1ccc2c(c1)OCO2 (stereo unspecified)
0.0% | O=C(NCCN1CCN(C(=O)c2ccccc2Cl)CC1)C(=O)NCc1ccccc1
-7.5% | Cc1ccc2c(Cl)c(C(=O)NC3CC3)sc2c1
1.9% | CC(C)CN1C2CCCC1CC(NC(=S)NCc1ccco1)C2 (stereo unspecified)

VDR inhibitor | SMILES
-13.7% | CC(C)CCC(CCNCc1ccccn1)c1ccc2c(c1)OCO2 (stereo unspecified)
5.3% | CCCc1nnc(NC(=O)CCC(=O)NCc2ccccc2OC)s1
-5.2% | CC1CCCCC1NC(=O)c1ccc(S(=O)(=O)NCc2ccco2)cc1 (stereo unspecified)
-15.1% | Cc1c(Cl)cccc1NC(=O)c1cc(S(=O)(=O)N2CCOCC2)cn1C
-4.2%&-5.6% | C=CCn1c(P(C)(=O)O)nc2ccccc21
-13.5% | NC(=O)CC(NC(=O)c1ccccc1)c1ccc(NCCc2ccc(Cl)cc2)c([N+](=O)[O-])c1 (stereo unspecified)
13.0% | CCc1ccccc1NC(=O)c1ccc2[nH]c(C)c(C)c2c1
1.4% | COC(=O)CNC(c1ccccc1)c1cc(Br)ccc1N (stereo unspecified)
1.9% | CS(=O)(=O)c1ccc(C(O)C(CO)NC(=O)C(Cl)Cl)cc1 (stereo unspecified)
-6.0% | CS(=O)(=O)NC1c2cccc3cccc(c23)C1N1CCOCC1 (stereo unspecified)
-2.5% | O=C(CCC1N=C2c3ccccc3N=C(SCc3ccccc3F)N2C1=O)NCc1ccc(F)cc1 (stereo unspecified)
2.4% | Cc1ccc(C(=O)NCCCNC(=O)COc2ccccc2Cl)cn1
-9.7% | O=[N+]([O-])c1ccc2nc(SCc3cn4cccnc4n3)[nH]c2c1
-4.8% | COc1ccc(CCN2C(=O)c3oc4ccc(F)cc4c(=O)c3C2c2ccc(C(C)(C)C)cc2)cc1 (stereo unspecified)
-0.4% | COc1ccc(NC(=O)C2CCN(S(=O)(=O)c3ccc4[nH]c(=O)ccc4c3)CC2)cc1Cl
10.5% | CCCn1c(NC(=O)c2ccc(Br)cc2)nc2ccccc21
3.6% | O=C(NCCCN1CCOCC1)C(=O)N/N=C/c1ccc2c(c1)OCO2
-9.8% | COC(=O)C1=C(C)N(C)C(=S)NC1c1ccc(Cl)cc1 (stereo unspecified)
-22.0% | CCc1noc(C)c1C(=O)N(CC)CC(=O)NCc1ccc(Cl)cc1
-9.6% | CCOc1ccc(CCNC(=O)CCCn2nc(C)c3c(C)n(-c4ccccc4)nc3c2=O)cc1

VDR inhibitor | SMILES
1.6% | O=C(CC1SC(N2CCCC2)=NC1=O)Nc1ccc(C(=O)NCc2ccc(F)cc2)cc1 (stereo unspecified)
-12.0% | COc1ccc(C(C(=O)NCC2CCCO2)N(C(=O)Cn2nnc3ccccc32)c2ccc(NC(C)=O)cc2)cc1OC (stereo unspecified)
-5.0% | CCn1cc2nc(SCC(=O)Nc3ccccc3C(F)(F)F)n(Cc3ccc(C)cc3)c(=O)c2n1
10.5% | O=C(O)CCNS(=O)(=O)c1ccc2c(c1)CCCC2
-6.6% | CC(C)CC1NC(=O)N(CC(=O)Nc2cc(S(=O)(=O)N3CCOCC3)ccc2Cl)C1=O (stereo unspecified)
-4.1% | COc1ccc(-c2nnn(CC(=O)NCc3ccccc3)n2)cc1OC
0.8% | Cn1cnnc1SCC(=O)Nc1ccc(OC(F)F)cc1
-10.2% | CCn1c(C(=O)N2CCc3ccccc3C2)cc2oc3ccccc3c21
-10.7% | O=C(Nc1cc2c(oc1=O)CCCC2=O)c1ccccc1
-1.2% | O=C(O)CCCNC(=O)c1ccc(NC(=O)Cc2ccc(Cl)cc2)cc1
-2.5% | COc1ccc(NC(=O)CN(C)C(=O)C(Sc2ccccc2)c2ccccc2)cc1 (stereo unspecified)
-0.4% | COc1ccccc1C(OC(=O)c1ccco1)C(=O)NCc1ccc(F)cc1 (stereo unspecified)
10.5% | O=C1CC(c2ccco2)CC(O)=C1C=Nc1ccc(Br)cc1 (stereo unspecified)
9.9% | CC(=O)CSc1nc2ccccc2s1
4.5% | COc1cccc(CNC(=O)c2ccc3c(=O)n4nc(Nc5ccccc5)sc4nc3c2)c1
-3.6% | CC(C)Cc1nc(Cl)c(C#N)c2c1CCCC2
21.0% | O=C(CN1CCN(S(=O)(=O)c2ccc(F)cc2)CC1)Nc1ccccc1C(=O)NC1CC1
-1.1% | O=C1c2ccccc2C(=O)N1Cc1nn2c(-c3ccc(Cl)cc3)nnc2s1
-11.8% | CCOc1ccc(NC(=O)c2ccc(N3CC4CC(C3)c3cccc(=O)n3C4)c(NC(=O)c3ccncc3)c2)cc1 (stereo unspecified)

This is a subset; rates above refer to the full screens.
